Assay outcomes as filed in PubChem.
Choline anaer gr: growth inhibitors of anaerobic choline-fed gram-negatives, minimal medium, absorbance; 55,000 tested, 0.2% active; calls only; Gram-negative bacterium anaerobic choline minimal medium; stronger effect = lower value; many inactives read as strong as hits in the columns shown;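 active = growth z-score on choline under -2 at 7 or 20 h with little or no fall on glycerol, limits in tiers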;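 note: stock transfer was 300 nL into about 50 µL; the organism is E. coli; final concentration not given here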
Choline anaer gr early: second read-out of Choline anaer gr, no call of its own (marks repeat the call); z-score; measured here: choline growth z-score, timepoint 1;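 score of optical density at 7 h as mean of two plates; lower means less growth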
* = called active by the depositor; i = inactive.

SMILES	Choline anaer gr	Choline anaer gr early
O=C(C1CCN(c2ccc3nncn3n2)CC1)N1CCN(c2ncccn2)CC1	i	-0.71
Cc1ccccc1NC(=O)N1CCCC1C(=O)O (configuration not stated)	i	1.5
CCSc1nn(CC(=O)Nc2ccccc2)c2nc3c(c(=O)n12)C(C)(C)Cc1ccccc1-3	i	0.67
Oc1ccccc1-c1ccnc2cc(-c3ccc(Cl)cc3)nn12	i	2.7
CCCn1c(=O)c2sccc2n2c(CCC(=O)NCCOC)nnc12	i	-0.45
Cc1ccc(-c2cc3c(SCC(=O)NC4CCCC4)nccn3n2)cc1	i	-0.68
COc1ccc(CNC(=O)C2(C)CCCN(S(=O)(=O)c3ccc(NC(C)=O)cc3)C2)cc1 (configuration not stated)	i	-0.67
COc1ccc(NS(=O)(=O)c2ccc3c(c2)NC(=O)C(CC(=O)N2CCCC2)CS3)cc1 (configuration not stated)	i	-1.1
O=C(NC1CCCCC1)c1sc2ccccc2c1Cl	i	0.66
Cc1ccccc1CN1C(=O)c2ccccc2S(=O)c2ccc(C(=O)NCc3ccc4c(c3)OCO4)cc21 (configuration not stated)	i	0.63
CCOC(=O)C1CCN(S(=O)(=O)c2ccc3c(c2)-c2oncc2CO3)CC1	i	-1.6
Cc1ccc(C)c(S(=O)(=O)N2CCCN(C(=O)c3nonc3N)CC2)c1	i	-0.94
O=C(NCCCN1CCN(c2ccccc2F)CC1)c1cc(=O)n2c(nc3ccccc32)s1	i	0.04
Fc1ccccc1CSc1nnc2n1CCN2c1ccccc1	i	-0.79
O=c1oc(-c2ccc(C(F)(F)F)cc2)nn1Cc1cc(Cl)ccc1O	i	0.47
CNC(=O)c1cnc2sc(C)c(C)n2c1=O	i	-0.48
COc1ccc(CN2CC(=O)N(c3ccc(C)c(C)c3)[C@@H]3CS(=O)(=O)C[C@@H]32)cc1	i	-0.26
O=C(c1ccc(NC(=O)N2CCCCc3ccccc32)cc1)N1CCN(C2CCCCC2)CC1	i	-1.1
Cc1cccc(-c2ccc(Nc3ccc(C(=O)NCC(C)C)cc3)nn2)c1	i	0.1
CC1(C(=O)NCc2ccccc2)CCN(C(=O)c2ccc(Cl)cc2)CC1	i	-0.12
Cc1ccc(NC(=O)CN2C(=O)CCn3nc(-c4cccn4C)cc32)cc1C	i	0.86
O=C(NC1CCCC1)c1cnc(N2CCOCC2)c2ccccc12	i	-0.47
CC(C)NC(=O)CCn1c(=O)c2ccccc2n2c(=O)n(Cc3ccccc3Cl)nc12	i	-0.53
Cc1cccc2[nH]c(SCC(=O)OC(C)C)nc12	i	-1.2
Cc1nc2c3ccccc3n3c(CCCC(=O)N4CCC(C(N)=O)CC4)nnc3n2n1	i	0.56
Further compounds follow:
SMILES	Choline anaer gr	Choline anaer gr early
CCOc1ccccc1NC(=O)N1CCCN(c2ccc(=O)n(-c3ccc(F)cc3)n2)CC1	i	-1.1
Nc1c(S(=O)(=O)O)cc(Nc2cccc3ccccc23)c2c1C(=O)c1ccccc1C2=O	i	1.6
Cc1[nH]c(C)c(S(=O)(=O)NCc2ccco2)c1-c1nnc(C2CC2)o1	i	-0.94
CCOC(=O)N1CCN(S(=O)(=O)c2c[nH]c(=O)[nH]c2=O)CC1	i	0.22
C/C=C1\C2C=C(C)CC1(N)c1ccc(=O)[nH]c1C2 (configuration not stated)	i	0.52
COc1ccc(N2CC(C(=O)Nc3ccc(-c4nc(-c5ccc(C)cc5)no4)cc3)CC2=O)cc1 (configuration not stated)	i	-1.8
O=C(NCc1ccc2c(c1)OCO2)C1CCCN(C(=O)c2cc(-c3cccnc3)n[nH]2)C1 (configuration not stated)	i	-1.3
Cc1cc2c(cc1S(=O)(=O)CCC(=O)N1CCc3ccccc31)OCC(=O)N2	i	0.75
CCn1ncc(Cl)c1C(=O)N1CCCC1c1c(C)noc1C (configuration not stated)	i	-1.6
CCOC(=O)C1CCCN(c2c(N3CCOCC3)c(=O)c2=O)C1 (configuration not stated)	i	0.16
CCCCN1C(=O)c2ccc(-c3ccccc3)n2CC1(C)C(=O)NC1CCC(C)CC1 (configuration not stated)	i	0.76
Cc1cc(C)cc(OCCCn2c(CN3CCOCC3)nc3ccccc32)c1	i	-1.9
Cc1cccc(CSc2nnc3n(CC(C)C)c(=O)c4ccccc4n23)c1	i	0.58
COc1ccc(CCC(=O)NCC(c2ccc3c(c2)CCCN3C)N2CCCC2)cc1 (configuration not stated)	i	-0.84
Cc1ccc2c(c1)-c1c(cnn1CC(=O)NCCCN1CCCCC1)CO2	i	-1.6
CC(C)OCCCN1C(=O)c2cc3occc3n2CC1(C)C(=O)NC1CCCCC1 (configuration not stated)	i	0.45
O=C(NCc1ccccn1)c1cccn1-c1nnc(N2CCCC2)s1	i	0.01
O=C(NCc1ccccc1)c1ccc(S(=O)(=O)c2ccccc2)nc1	i	-0.77
CCN(Cc1ccccc1)S(=O)(=O)c1ccc(S(=O)(=O)N(Cc2ccccc2F)CC2CCCO2)cc1 (configuration not stated)	i	1.3
Cc1ccc(-c2csc3c2ncn2c(=O)n(CC(=O)NCc4ccccc4)nc32)cc1	i	-1.1
CCCc1cc(C2CCCN2Cc2cc(F)cc(F)c2)no1 (configuration not stated)	i	0.64
CNC(=O)N1CCN(c2nc3cccnc3n(C)c2=O)CC1	i	0.69
C=Cc1ccc(COC(=O)c2nnn(-c3cccc(Cl)c3)c2C)cc1	i	1.9
COc1cc(OC)c(Nc2c(C(=O)N3CCOCC3)cnc3ccccc23)cc1Cl	i	0.2
O=C(CCc1nc(CSc2nc3ccccc3s2)no1)Nc1nccs1	i	0.6
Further results
SMILES	Choline anaer gr	Choline anaer gr early
Cc1nc2ncccc2c(=O)n1-c1ccc(F)c(NC(=O)C2CCCCC2)c1	i	-0.67
CCN1c2cc(C)ccc2-n2cccc2C12CCN(C(=O)c1ccc(OC)cc1)CC2	i	-0.82
Cc1ccc(C(=O)N2CCC(N3CCN(Cc4ccc(F)cc4)C(=O)C3=O)CC2)cc1F	i	0.26
C=CCSc1nnc2[nH]c(=O)cc(CCC)n12	i	-0.67
CCCC(=O)Nc1cccc(NC(=O)c2ccccc2Br)c1	i	0.16
Cc1cc(C)cc(NC(=O)c2cnc3ccccn3c2=O)c1	i	-0.04
O=C1C(O)=C(c2ccccc2)C(c2ccc(Br)cc2)N1Cc1ccccc1 (configuration not stated)	i	0.09
CCN(CC)CCCNCc1ccc2c(c1)n(C)c(=O)n2C	i	-0.16
Cc1ccc(CS(=O)(=O)c2cn(CC(=O)N3CCc4ccccc4C3)c3ccccc23)cc1	i	0.49
O=C(c1ccc(Cl)cc1)N1CCc2cc(CNS(=O)(=O)c3ccccc3F)ccc21	i	0.62
O=S1(=O)c2ccccc2NC(c2ccccc2Cl)N1Cc1c(F)cccc1Cl (configuration not stated)	i	-1.5
Cc1ccc(Cn2cccc2CNS(C)(=O)=O)cc1	i	-1.1
CC(C)(C)c1ccc(C(=O)N2CCC(c3nc4ccccc4o3)CC2)cc1	i	-0.23
CCOC(=O)c1c(NC(=O)c2ccccc2Br)oc2cccnc12	i	-0.69
O=C(NCc1ccccn1)NC1COc2ccccc2C1 (configuration not stated)	i	-2
Nc1nc(-c2ccccc2)nn1C(=O)c1ccc(F)cc1	i	0.75
CC(C)(C)c1ccc(O)c(NC(=O)c2cn(-c3ccc(S(=O)(=O)N4CCOCC4)cc3)cn2)c1	i	-0.58
CCCN1CCN(C(=O)c2cnc(Nc3ccc(C)c(Cl)c3)c3ccccc23)CC1	i	-0.05
CCn1c(CCc2cccc(NS(=O)(=O)c3ccc4c(c3)oc(=O)n4C)c2)nc2ccccc21	i	1.8
CCOc1cc(CNCCSc2nnnn2C)ccc1OCc1ccccc1Cl	i	0.19
O=C(NC1CCCC1)c1cccc(Nc2ncc(-c3ccc(F)cc3)cn2)c1	i	-0.18
C=CCn1c(SCC(=O)c2ccc(F)cc2)nc2sc(CC)cc2c1=O	i	-0.6
Cc1ccc(N2CC(NC(=O)Nc3nc4ccccc4s3)CC2=O)cc1 (configuration not stated)	i	0.09
CCn1c(=O)n(-c2ccc(C)c(C)c2)c2nc(-c3ccc(C)cc3)nc(C(N)=O)c21	i	0.81
C=Cc1ccc(Cn2nc3c(S(=O)(=O)N4CCN(c5ccc(F)cc5)CC4)cccn3c2=O)cc1	i	1.6
More results follow:
SMILES	Choline anaer gr	Choline anaer gr early
COc1cc(NC(=O)Cn2nc3c4sccc4ncn3c2=O)cc(OC)c1	i	-0.24
CC(C)c1nn2c(S(=O)(=O)N3CCOCC3)c(C(C)C)nc2s1	i	-2
CCc1onc(C)c1C1CCCN1C(=O)c1ccnn1C (configuration not stated)	i	0.54
CCCN1CCN(S(=O)(=O)c2cc(-c3nnc(C(C)C)o3)co2)CC1	i	-0.99
Cc1ccc(-c2nc3sc(CCNC(=O)c4cccc(Br)c4)c(C)n3n2)cc1	i	1
COc1ccc(Br)cc1-c1nc(CSc2nc3c(=O)[nH]cnc3n2C)c(C)o1	i	0.92
Cc1cccc(NC(=O)c2nn(C)c3c2COc2ccccc2-3)n1	i	-0.68
CCNC(=O)N1CCCN(S(=O)(=O)C(C)C)CC1	i	0.6
Cc1cc(C)cc(OC(C)C(=O)Oc2cccc(-n3cnnn3)c2)c1 (configuration not stated)	i	-0.16
O=C(Cn1c(=O)[nH]c2c(-c3ccccc3F)c[nH]c2c1=O)NCc1cccnc1	i	0.27
CC(C)Cn1c(=O)c(N2CCC(NC(=O)Nc3ccc4c(c3)OCCO4)CC2)nc2ccccc21	i	0.54
Cc1c(C(=O)N2CCC(C)CC2)sc2ncnc(N3CCN(C)CC3)c12	i	-0.01
COc1ccc(NC(=O)c2nnc(COCC(=O)NC3CCN(Cc4ccccc4)CC3)s2)cc1	i	-0.71
CCOC(=O)C1CCCN(c2ccc3nnc(CCc4nc(-c5ccccc5C)no4)n3n2)C1 (configuration not stated)	i	0.73
O=C(CSc1ccccc1)N1CCC2(CC1)Nc1cc(F)ccc1-n1cccc12	i	-0.21
O=C(CN1CCSc2ccccc21)N1CCN(c2ccccc2)CC1	i	-0.05
Cc1cc(N(CCO)Cc2ccccc2)n2nc(-c3ccccc3C)nc2n1	i	0.01
COc1ccc(C2CCCN2C(=O)c2cc(-c3ccc4c(c3)OCO4)on2)cc1 (configuration not stated)	i	0.6
Cc1nn(C)c(C)c1S(=O)(=O)N(Cc1cc(CN2CCOCC2)cs1)c1ccc(F)cc1	i	-0.33
CCCN(c1nc2nc(C)c(Cl)c(C)n2n1)S(=O)(=O)c1ccc(C)cc1	i	-0.86
CCOC(=O)COc1ccc(F)cc1C(=O)c1ccn2nc(-c3ccc(Cl)cc3)cc2n1	i	0.6
CCOc1ccc(NC(=O)c2sc3ncnc(N4CCCCC4C)c3c2C)cc1 (configuration not stated)	i	0.64
CC1(C)C(=O)N(CC(=O)Nc2ccc(F)cc2F)c2ccccc21	i	-0.82
CCOc1ccccc1OCc1nn2c(-c3ccccn3)nnc2s1	i	0.97
O=C(O)c1ccc2[nH]c3c(c2c1)CCCC3	i	-0.12
Going on with the list.
SMILES	Choline anaer gr	Choline anaer gr early
CC1CCN(CCCNC(=O)Cc2ccc(NC(=O)N3CCSc4ncccc43)cc2)CC1	i	0.79
COC(=O)CC1=CC(SCc2ccc(F)cc2)=Nc2ccccc2N1	i	1
COc1cc(C)c(Cc2cnc(N)nc2N)cc1OC	i	-2.2
COc1ccc(OC)c(S(=O)(=O)N2CCC(n3cnc4cccnc43)CC2)c1	i	-0.82
O=C(COc1ccccc1)NCC(c1ccc(Br)cc1)c1c[nH]c2ccccc12 (configuration not stated)	i	0.41
Cc1csc(-c2cc(S(=O)(=O)NCc3cccs3)c(C)n2C)n1	i	-0.1
CCSc1nnc(-c2nn(C)c3c2CN(S(=O)(=O)c2cccc(C)c2)CC3)n1C	i	-2
Nc1nc(-c2ccccc2)nn1C(=O)c1ccccc1F	i	1.1
C[C@@H]1CN(CCCn2c3ccccc3c3ccccc32)C[C@H](C)N1	i	0.58
CN(CCc1noc(COc2ccccc2)n1)C(=O)c1ccc(F)cc1	i	-1.1
Cc1cc2[nH]c(=O)[nH]c2cc1NS(=O)(=O)c1ccc(F)cc1F	i	-0.57
NC(=O)c1ccc(NC(=O)c2sc3ncccc3c2-n2cccc2)cc1	i	-1.1
Cc1ccc(-c2c(C(F)(F)F)nn3c(NCC4CCCO4)cc(C)nc23)cc1 (configuration not stated)	i	-1.6
CCn1nc(C)c2c1c(=O)n(CCc1ccccc1)c(=O)n2CC(=O)NCCC(C)C	i	0.28

An excerpt, so the mix of outcomes need not match the whole.
